Screens (PubChem BioAssay)
NPYLR7 ag = mosquito NPYLR7 agonism. HEK293T NPYLR7/Galpha15, GCaMP6s calcium fluorescence. activation, % at 10 µM. hit rate 0.15% among 270,000. AID 1259423; in the data active means activation above about 40%;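 further: 0% = vehicle and 100% = reference agonist at the receptor; some compounds past the cut are filed as inactive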
NPYLR7 ag max-min = also measured in NPYLR7 ag; calls as there; activation, %; measured here: Max-Min RFU normalised activation; some inactives read as strong as hits;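 span of the calcium signal over five minutes; 0% = vehicle and 100% = native peptide agonist; compound fluorescence can raise it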
Numbers without * were called inactive.

SMILES	NPYLR7 ag	NPYLR7 ag max-min
O=c1ccnc(N2CCc3sccc3C2C2CC2)[nH]1 (configuration not stated)	9.9	4.7
COc1ccc(CCN(C)c2cc(-c3ccccc3)nc(SCc3ccc(C(=O)O)o3)n2)cc1OC	14.1	14.9
CC(=O)Cn1c(=O)c2c(nc3n(-c4ccccc4Cl)c(C)cn23)n(C)c1=O	0.5	11.3
O=C(c1cccc(-n2cnnc2)n1)N1CCCC(c2ccn[nH]2)C1 (configuration not stated)	8.2	4.9
CC1=CC[C@@H]2CN(C(=O)Cn3[nH]c4ccccc4c3=O)C[C@@H]2C1	6.5	0.9
OCCOc1ccccc1CN1CCN(c2ncnc3ccccc23)CC1	2.8	2.0
CC(C)c1[nH]nc2c1C1(c3ccccc3-c3ccccc31)C(C#N)C(=N)O2 (configuration not stated)	-7.1	-8.4
CN(c1ccccc1)N1CC(C(=O)NCCC2=CCCCC2)CC1=O (configuration not stated)	0.3	-4.5
CCCCOc1ccc(-c2nc(C=Nc3cccc(Cl)c3C)c(O)o2)cc1	25.2	21.3
COCCn1ccc2c(cnc3nc(SC)nn32)c1=O	1.7	1.6
Cc1ccc2c(c1)CCCN2C(=O)CN1CCCC1c1cc(C)no1 (configuration not stated)	-9.6	-14.1
CN1CCN(C(c2cccc(F)c2)C2Sc3ncnn3C2=O)CC1 (configuration not stated)	0.2	-2.1
CCOC(=O)C1CCCN(CC(=O)N2N=C(c3cccc(OC)c3)CC2c2ccccc2F)C1 (configuration not stated)	-1.6	7.5
Cc1nc(C)c(C(=O)NC2C(C)CN(Cc3ccccc3)CC2C)o1 (configuration not stated)	-18.6	-20.5
CN(C)Cc1ccc(C(=O)NC2CCCN(C3CCCCCC3)C2)o1 (configuration not stated)	12.1	9.1
Cn1cnc(-c2ccccc2)c1-c1cccc2cnccc12	-6.5	-14.3
CN1CCC(C)(CNC2CSCCSC2)C1 (configuration not stated)	27.6	11.7
CCOC(=O)C1CCCN(CC(=O)N2N=C(c3cccc(C)c3)CC2c2ccccc2OC)C1 (configuration not stated)	6.8	4.5
COC(=O)C(=O)NCC1Cc2cc(Oc3ccccc3)ccc2O1 (configuration not stated)	4.5	2.7
Cc1[nH]c(=S)sc1CC(=O)N1CCCC1CC(C)(C)C (configuration not stated)	-7.7	632.8
CN(Cc1ccc2nsnc2c1)C(=O)c1cc(COc2cccc(F)c2)[nH]n1	15.0	5.8
CCOC(=O)c1c(SCC(=O)c2ccc(F)cc2)nc(=O)[nH]c1C	11.1	15.2
O=C(/C=C/c1ccccn1)NC(c1ccc(F)cc1)C1CCCC1 (configuration not stated)	1.5	0.9
CCOC(=O)c1nn(-c2ccccc2F)cc1O	-5.6	-6.2
Fc1ccc(C2(c3noc(COc4cccnc4)n3)CCOC2)cc1 (configuration not stated)	16.2	11.0
CCCCNC(=O)CC(c1ccc(OC)cc1)c1c[nH]c2ccccc12 (configuration not stated)	7.3	8.7
O=C(CSc1nnc(CNC(=O)c2c(F)cccc2Cl)n1-c1ccc([N+](=O)[O-])cc1)Nc1ccccc1F	-4.5	4.9
COc1ccc(-c2cc(CNC(=O)c3ccc(S(=O)(=O)N(C)C)cc3)no2)cc1OC	1.8	-0.1
Fc1cccc(F)c1C1c2cccn2CCCN1Cc1ccccc1Cl (configuration not stated)	3.8	3.6
COc1cccc(C(=O)Nc2cc(C(C)(C)C)no2)c1	5.8	2.8

The list goes on, starting with the last seven of the part before.
SMILES	NPYLR7 ag	NPYLR7 ag max-min
CCOC(=O)c1nn(-c2ccccc2F)cc1O	-5.6	-6.2
Fc1ccc(C2(c3noc(COc4cccnc4)n3)CCOC2)cc1 (configuration not stated)	16.2	11.0
CCCCNC(=O)CC(c1ccc(OC)cc1)c1c[nH]c2ccccc12 (configuration not stated)	7.3	8.7
O=C(CSc1nnc(CNC(=O)c2c(F)cccc2Cl)n1-c1ccc([N+](=O)[O-])cc1)Nc1ccccc1F	-4.5	4.9
COc1ccc(-c2cc(CNC(=O)c3ccc(S(=O)(=O)N(C)C)cc3)no2)cc1OC	1.8	-0.1
Fc1cccc(F)c1C1c2cccn2CCCN1Cc1ccccc1Cl (configuration not stated)	3.8	3.6
COc1cccc(C(=O)Nc2cc(C(C)(C)C)no2)c1	5.8	2.8
COCc1nc(-c2cccc(CN3CCN(C(=O)c4cccc(NC(C)=O)c4)CC3)c2)no1	-1.9	-1.3
CCOC(=O)c1nn(-c2ccc(F)cc2)c(=O)cc1OCC(=O)Nc1cc(C)cc(C)c1	9.1	5.9
COc1cccc(C(NC(=O)C2CCN(CCc3ccccc3)CC2)c2ccccn2)c1 (configuration not stated)	11.5	-3.1
COc1ccc(-c2cc(C(=O)Nc3cccc4ccccc34)c3ccccc3n2)cc1	-0.7	-4.3
CC(c1nc(C(C)(C)C)no1)S(=O)(=O)Cc1cccc(C(=O)N2CCCCC2)c1 (configuration not stated)	-7.5	-12.8
CCCC1=C(C(=O)OCC)C(c2ccc([N+](=O)[O-])cc2)NC(=O)N1 (configuration not stated)	-0.4	-6.9
CC1(C)CC2CC(C)(CN2S(=O)(=O)c2cccc(C(N)=O)c2)C1 (configuration not stated)	1.0	2.1
CCCCn1c(C)c(C)n2c3c(=O)n(CCOCC)c(=O)n(C)c3nc12	0.4	5.2
CCOCCCn1c(SCc2ccc(Br)cc2)nc2cc(S(=O)(=O)N3CCOCC3)ccc21	9.0	-1.0
CC(=O)Nc1ccccc1NC(=O)CNC(c1ccco1)C(F)(F)F (configuration not stated)	4.8	-17.2
O=C(CSc1nc(=O)n(CCCO)c2c1CCC2)N1CCc2ccccc21	-10.7	-17.7
O=C(Cc1csc(-c2ccc(F)cc2)n1)NCc1ccco1	0.1	-3.0
CCOCCOc1nc(-c2ccccc2C)n(-c2ccc(NC(=O)Cc3ccc(OC)cc3)cc2)n1	15.9	14.0
Cc1c(C(C)NCc2ccc(F)c(F)c2)cnn1-c1ccccc1 (configuration not stated)	6.5	2.0
CC(NS(=O)(=O)c1ccc2c(c1)OCCCO2)c1ccccc1F (configuration not stated)	6.5	5.4
COCCNC(=O)Cn1nc2c(c1NC(=O)C1CCN(S(C)(=O)=O)CC1)CSC2	-3.7	4.5
N#CC(=CC1=C(N2CCOCC2)C(=Cc2ccc([N+](=O)[O-])cc2)CC1)C(=O)Nc1ccccc1F	-10.9	-10.5
CCCCn1c(C)c(C)n2c3c(=O)n(CCOC)c(=O)n(C)c3nc12	0.7	-1.3
CC(C)(Oc1ccc(Cl)cc1)C(=O)NCCNc1cc(-n2cccn2)ncn1	-6.3	-12.5
Cc1c(C(=O)N2CCC3(CC2)C(=O)Nc2ccccc23)cnc2ccnn12	1.4	-4.5
CCc1[nH]c2ccc(CNc3cc(COC)ncn3)cc2c1C	19.2	5.2
N#Cc1ccccc1Cn1c(NCCO)nc2ccccc21	0.9	1.7
Cn1cc(C(N)=O)cc1C(=O)NCCCC1CCCC1	3.4	-11.0
CCCN(Cc1c(CC)nn(-c2ccc(F)cc2)c1N1CCN(C(C)C)CC1)S(=O)(=O)c1cccc(C(F)(F)F)c1	6.6	20.2
CN(CC(=O)Nc1ccccc1Cl)Cn1nc(C2CCCCC2)oc1=S	1.9	-1.8
COc1ccc(-c2nc3nc4ccccc4nc3n2CC2CCCO2)cc1 (configuration not stated)	0.6	-11.5
CC(C)=CCC/C(C)=C/CNC(=O)CCC1CCCC1	3.2	3.2
Cc1cccc(-c2nc3c(N4CCOCC4)nccc3[nH]2)c1	-7.4	-9.7
C#CC(CC)(CC)NC(=O)CN(Cc1ccccc1F)C1CC1	7.2	4.9
C=CCOn1c(=O)c(-c2cccc(C(F)(F)F)c2)[n+]([O-])c2ccccc21	-13.5	-16.8

Grouped by structure, the compounds so far with a nitro group on carbon (three)
SMILES	NPYLR7 ag	NPYLR7 ag max-min
O=C(CSc1nnc(CNC(=O)c2c(F)cccc2Cl)n1-c1ccc([N+](=O)[O-])cc1)Nc1ccccc1F	-4.5	4.9
CCCC1=C(C(=O)OCC)C(c2ccc([N+](=O)[O-])cc2)NC(=O)N1 (configuration not stated)	-0.4	-6.9
N#CC(=CC1=C(N2CCOCC2)C(=Cc2ccc([N+](=O)[O-])cc2)CC1)C(=O)Nc1ccccc1F	-10.9	-10.5

The results go on.
SMILES	NPYLR7 ag	NPYLR7 ag max-min
Cn1cc(Br)c(C(=O)Nc2nc3ccc4ccccc4c3s2)n1	-4.7	-5.8
CCn1cc(S(=O)(=O)N2CCCCC2c2ccc(F)cc2)cn1 (configuration not stated)	2.1	0.4
CC1(C(=O)NS(=O)(=O)c2ccc3c(c2)CCO3)CCN1C(=O)CCC1CCCC1 (configuration not stated)	2.9	4.8
COCCn1c(SCCn2cccn2)nc2cc(Cl)ccc2c1=O	4.2	1.9
CC1=CC(C)(C)Nc2ccc(C)cc21	1.6	0.2
Cc1nccn1CCCN1C(=O)OC2(CCCCC2)C1(C)O (configuration not stated)	1.2	-1.9
COc1ccc2[nH]c3c(=O)n(CCCCC(=O)NCc4ccccc4)c(=S)[nH]c3c2c1	-4.0	-9.3
CN1c2ccc([N+](=O)[O-])cc2CC(C#N)(C#N)C12CCCCC2	8.5	8.4
Cc1ccc(Cc2nc(CSCc3cccs3)cs2)cc1	23.5	27.2
COC(=O)c1cc(-c2cccs2)nc2c1c(-c1ccco1)nn2C1CCS(=O)(=O)C1 (configuration not stated)	13.2	3.1
O=C1CC(c2nc3ccccc3n2Cc2ccccc2F)CN1c1ccccc1F (configuration not stated)	0.5	-5.6
CCCCCN=c1ccn(Cc2ccccc2)c2ccccc12	-2.2	-15.8
O=C(/C=C/c1ccccc1)N1CCc2ccccc2C1c1ccc(Cl)cc1 (configuration not stated)	17.8	6.5
CSc1cccc(CN2CCCC(C(=O)Nc3cccc(-n4cccn4)c3)C2)c1 (configuration not stated)	7.2	3.6
CCOC(=O)C1(CCc2ccccc2)CCCN(C2CCN(Cc3ccccn3)CC2)C1 (configuration not stated)	12.9	8.7

A second format for 2 compounds above.
Values in the order: NPYLR7 ag, NPYLR7 ag max-min
- COc1ccc2[nH]c3c(=O)n(CCCCC(=O)NCc4ccccc4)c(=S)[nH]c3c2c1
    -4.0, -9.3
- CN1c2ccc([N+](=O)[O-])cc2CC(C#N)(C#N)C12CCCCC2
    8.5, 8.4

Going on with the list.
SMILES	NPYLR7 ag	NPYLR7 ag max-min
CCOC(=O)c1cc2cc([N+](=O)[O-])cc(OC)c2oc1=O	-0.3	0.6
Cc1sc(NC(=O)C2=COCCO2)c(-c2nc3ccccc3s2)c1C	11.7	8.0
CCOC(=O)c1cc(-c2ccccc2C)n(-c2ccc(C(=O)NCc3ccco3)cc2)n1	5.5	2.8
COCCC(=O)N1CCC(C(=O)Nc2cccc(-c3nnc(C)s3)c2)CC1	3.9	2.6
C[C@@H]1O[C@@H](OC[C@H]2OC(Oc3c(-c4ccc(O)c(O)c4)oc4cc(O)cc(O)c4c3=O)[C@H](O)[C@@H](O)[C@@H]2O)[C@H](O)[C@H](O)[C@H]1O (some centres not stated)	-9.3	-12.6
NS(=O)(=O)c1ccc(Cn2cc3ncccc3c2O)cc1	24.6	14.9
c1ccc(NCc2cn3ccccc3n2)cc1	-6.8	-7.2
Cc1cccc(C(C)C)c1NC(=O)C1CC(=O)N(Cc2ccccn2)C1 (configuration not stated)	4.9	2.0
O=C(O)c1sc(Cl)cc1/C=C\c1ccccc1	-7.8	-8.8
Cc1nc(-c2ccc(CNC(=O)c3cc(CC(C)C)nn3C)cc2)no1	14.9	6.6
O=C(CCc1cccs1)NCC(O)c1cccc(C(F)(F)F)c1 (configuration not stated)	6.7	4.1
COc1ccc(Br)cc1S(=O)(=O)N1CCCC1c1ccncc1 (configuration not stated)	-2.5	-9.4
CN1CCN(c2ncccc2CNC(=O)CC2CCS(=O)(=O)C2)CC1 (configuration not stated)	-3.3	-3.8
Cc1c(Br)c(C(F)(F)F)nn1CC(=O)N1CCCCC1	-2.3	-4.8
Cn1c(=O)n(CCCc2ccccc2)c(=O)c2c1nc1oc(C(C)(C)C)cn12	8.8	13.3
Cc1ccc2nc(-c3ccc4c(c3)OCO4)c(NC(C)(C)C)n2c1	-1.5	3.0
CCc1nc(NC(=O)NCc2ccccc2-n2cccn2)nn1C	-3.9	-5.3
CC(Cc1c(F)cccc1F)NC(=O)NCC(=O)NCc1ccco1 (configuration not stated)	1.5	1.0
CSCCC(NC(N)=O)C(=O)NCc1cccc(N2CCOC2=O)c1 (configuration not stated)	-0.3	4.6
O=C(Nc1ccc(F)cc1)C(=O)Nc1ccccc1[N+](=O)[O-]	27.6	26.4
COc1ccc(-c2nc(N(CCC(=O)NC3CC3)Cc3ccccc3)c3ccccc3n2)cc1	2.8	7.4
Cc1ccc(-c2n[nH]c(=S)n2CC(=O)N=c2sccn2Cc2ccccc2F)cc1	11.4	4.6
COc1ccc(S(=O)(=O)N(CCN2CCOCC2)c2ccccc2)cc1Cl	-4.9	-8.6
CCOC(=O)C1C(=O)NCC12CCN(C(=O)c1cc(C)oc1C)CC2 (configuration not stated)	12.5	26.4
OCCN1CCSC1=Nc1ccccc1C(F)(F)F	-3.8	-0.7
O=C(O)c1cc(Cl)c(Cl)nc1Cl	2.6	4.7
O=C1CC(c2cccc3c2oc2ccccc23)c2cn[nH]c2N1 (configuration not stated)	-3.4	-4.9
CC1(C(=O)NS(=O)(=O)c2ccc3c(c2)CCO3)CCN1C(=O)COc1ccc(Cl)cc1 (configuration not stated)	2.5	0.4
CCS(=O)(=O)c1ccc(-c2ccc(NS(=O)(=O)c3ccc(C)s3)cc2)nn1	10.1	5.2
CC(C)NC(=O)C1CCCN(C2CCN(C3Cc4ccccc4C3)CC2)C1 (configuration not stated)	3.4	-0.1
O=C(NCCCN1CCOCC1)c1cc2n(n1)CCN(Cc1ccccc1C(F)(F)F)C2=O	19.3	10.4

Retrieved by compound from above:
SMILES	NPYLR7 ag	NPYLR7 ag max-min
CC(Cc1c(F)cccc1F)NC(=O)NCC(=O)NCc1ccco1 (configuration not stated)	1.5	1.0
Cc1ccc(-c2n[nH]c(=S)n2CC(=O)N=c2sccn2Cc2ccccc2F)cc1	11.4	4.6

This is a subset; the hit share may differ from the screen's.
